PINK1 modulator: changes PINK1 expression; AID 624263; Potency, µM (doses to about 76.6 µM), for inactives: at the highest dose activation (PINK1 increase), usual class: activators; actives 0.2% (n = 410,000); PINK1 immunofluorescence, high-content cytometry, 24 h; active = well fitted activation curve with a large enough effect; inconclusive = small, poorly fitted or top-dose-only effect; inactive = flat fitted curve, though single readings scatter; cell line not stated here;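 note: potency is the fitted concentration of half-maximal effect; % of control where 0% means no effect; nearly all actives have a fitted effect of over 65% in size; a mitochondrial uncoupler was the plate control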
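Readout is PINK1 immunofluorescence, quantified alongside mitochondrial, cell and nuclear markers by laser-scanning microplate cytometry. Cells from a stable line were exposed to compound titrations (5 concentrations) for 24 hours, with CCCP controls.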
D2 PAM: human D2 receptor positive allosteric modulation; P14416; DiscoveRx D2 beta-arrestin cells, luminescence, 90 min; 100% = 57 uM dopamine signal; potentiation, % (concentration not given with the values); actives 0.23% (n = 360,000); active = potentiation of 50% or more; inconclusive = 30% to 50%; inactive = 30% or less;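 note: compound concentration not given in the record; tested on top of an EC20 dose of dopamine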
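PathHunter D2 cells, attached overnight at 37 deg C, received compound in DMSO plus dopamine at EC20 (50 nM final) for 90 min at 37 deg C. Beta-arrestin recruitment was read as luminescence after 1 h with detection reagent at ambient temperature.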
TRPV1 potentiator: human TRPV1 potentiation | TRPV1-expressing cells, Fluo-8 calcium influx, capsaicin EC20 potentiation; host cell line not named in the record; control for the full effect not named in the record | potentiation, % at 8.33 µM | actives 0.02% (n = 320,000) | Q8NER1 | AID 540277; active means potentiation above 80%; inconclusive means 30% to 80%; inactive means below 30%; note: 0% is about no effect
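Fluo-8 calcium influx in TRPV1-expressing cells, kinetic read (ex 480/em 520 nm). Compound added and read 3 min for agonist activity, followed by capsaicin at EC20 final and 2 min further read for enhancement.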
D2 ag: agonists of human D2 dopamine receptor (beta-arrestin); P14416; DiscoveRx PathHunter D2 beta-arrestin, luminescence, 90 min; 100% = 57 uM dopamine signal; activation, % (no concentration beside the values); actives 0.084% (n = 360,000); AID 624465; in the data active = activation above about 40%; inconclusive = about 15% to 40%; inactive = below about 15%; note: compound concentration not given in the record; the text of the record calls up to 30% inactive
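Agonist mode: compounds alone added to overnight-plated D2 PathHunter cells for 90 min at 37 C, with 57 uM final dopamine (EC100) defining full response. Beta-arrestin recruitment detected by chemiluminescent reagent, read after 1 h at ambient temperature.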
Sfp PPTase inh: blocks B. subtilis Sfp PPTase activity; Q9F4F7; Biochemical Sfp PPTase activity, qHTS; Potency, µM, without a hit: max response, negative = inhibition, actives largely listed as inhibitors; actives 3.5% (n = 310,000); active = well fitted inhibition curve with a large enough effect; inconclusive = small, poorly fitted or top-dose-only effect, or another doubt; inactive = no such curve, though single readings can be large or run the other way;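 note: the enzyme is Sfp with the accession as filed and its product quenches rhodamine fluorescence; potency is the fitted concentration of half-maximal effect; 0% = enzyme reaction without inhibitor and -100% = no enzyme wells; top concentration of the series not given in the record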
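Buffer: 50 mM Hepes-Na pH 7.6, 10 mM MgCl2, 0.01% Nonidet P-40, 0.01% BSA. Enzyme 15 nM, pre-exposed to compound 15 min; substrates then added and fluorescence change tracked over 30 min.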
Six1-Eya2 blk: blocks human Six1 binding to Eya2; Q15475+O00167; AlphaScreen GST-Six1/His-Eya2 binding, biochemical; active compounds read low; control for the full effect not named in the record; activity change, % (concentration not given with the values); actives 0.56% (n = 360,000); AID 651725; in the data active = activity change below about -65%; inconclusive = about -30% to -65%; inactive = above about -30%; note: % is set by controls: 0 for no effect and ±100 for the full control effect
Target sequence (O00167 whole entry, looked up): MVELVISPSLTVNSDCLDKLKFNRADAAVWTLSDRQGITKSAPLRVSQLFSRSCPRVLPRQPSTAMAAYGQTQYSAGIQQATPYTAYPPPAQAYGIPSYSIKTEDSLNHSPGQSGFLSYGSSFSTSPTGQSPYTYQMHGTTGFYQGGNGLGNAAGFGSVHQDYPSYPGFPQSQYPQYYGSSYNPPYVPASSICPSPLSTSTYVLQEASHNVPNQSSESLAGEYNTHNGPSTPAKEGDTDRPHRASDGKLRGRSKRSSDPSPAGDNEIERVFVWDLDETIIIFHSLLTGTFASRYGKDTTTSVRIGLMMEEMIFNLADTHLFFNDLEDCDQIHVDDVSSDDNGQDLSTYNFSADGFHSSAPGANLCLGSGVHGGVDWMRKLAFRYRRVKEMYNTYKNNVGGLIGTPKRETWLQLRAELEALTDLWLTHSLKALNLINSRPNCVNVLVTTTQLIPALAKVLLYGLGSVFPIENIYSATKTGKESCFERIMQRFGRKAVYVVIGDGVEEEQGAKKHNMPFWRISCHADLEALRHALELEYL
Target sequence (Q15475 whole entry, looked up): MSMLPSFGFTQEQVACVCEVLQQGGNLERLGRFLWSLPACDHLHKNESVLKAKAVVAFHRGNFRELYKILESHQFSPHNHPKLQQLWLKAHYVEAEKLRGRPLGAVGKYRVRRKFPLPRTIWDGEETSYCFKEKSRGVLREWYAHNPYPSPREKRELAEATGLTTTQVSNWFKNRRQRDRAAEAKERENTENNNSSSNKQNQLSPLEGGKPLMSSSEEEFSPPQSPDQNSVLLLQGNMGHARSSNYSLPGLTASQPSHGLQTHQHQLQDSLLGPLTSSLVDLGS
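AlphaScreen with GST-Six1 and His-Eya2 (5X mix: 250 nM and 500 nM), glutathione donor and nickel acceptor beads; buffer 50 mM Tris pH 8.0, 300 mM NaCl, 1 mM TCEP; 1 h at 37 C in the dark.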
CtBP-E1A inh: inhibitors of CtBP/E1A interaction | actives 0.49% (n = 340,000) | activity change, % (no concentration beside the values) | AlphaScreen GST-E1A/His-CtBP binding, 1536-well; active compounds read low; control for the full effect not named in the record | AID 651724; in the data active means activity change below about -65%; inconclusive means about -30% to -65%; inactive means above about -30%; note: % is set by controls: 0 for no effect and ±100 for the full control effect
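GST-E1A and His-tagged CtBP (125 nM each as 5X stock) were preincubated with pin-transferred compound for 2 h at 37 °C in the dark, then glutathione donor and nickel acceptor beads were added for 1 h before AlphaScreen reading.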
* hit, by the source's call; ? = inconclusive; / = not tested or not shown; [ ] = dose if it differs, or a comment. Rows were taken by chance; about 3.7% have a hit in one of these screens.

SMILES	PINK1 modulator	D2 PAM	TRPV1 potentiator	D2 ag	Sfp PPTase inh	Six1-Eya2 blk	CtBP-E1A inh
O=C(CSc1cn[nH]n1)Nc1ccccc1C(F)(F)F	0.2%	-8	4	0.9	-18%	3	?
COc1ccc(C(=O)NCc2c(CC(C)C)oc(C)c2C(=O)O)cc1	-0.3%	4	-5	-3.7	0%	0	-2
CN=C1C=C/C(=N/N=c2\ccn(O)cc2C)C=C1C	7.2%	-19	2	-10	-9%	?	0
COc1ccc2cc(C(=O)N3CCc4ccccc43)[nH]c2c1	0.9%	-9	-15	0.9	11%	6	/
CC1CCN(S(=O)(=O)c2ccc(NC(=O)C3CSC4(C)CCC(=O)N34)cc2)CC1 (centres undefined)	-3.1%	24	9	1.1	/	-8	0
CC1CCN(S(=O)(=O)c2nnc(NC(=O)COc3ccccc3F)s2)CC1	1.7%	-2	0	-4.3	-15%	4	1
O=C(COC(=O)/C=C/c1ccc(F)cc1)Nc1ccc2[nH]c(=O)[nH]c2c1	0.2%	2	2	7.9	/	4	-26
Cc1cc(C)n(CC(O)COc2ccccc2Br)n1 (centres undefined)	-1.2%	-15	2	-5.2	4%	1	/
COc1cccc2cc(C(=O)OCc3ccccc3)c(=O)oc12	0.9%	-8	-15	8.2	9%	2	3
Cc1noc(C)c1S(=O)(=O)N(C)C[C@H]1OCc2cn(nn2)CCCC(=O)N([C@@H](C)CO)C[C@@H]1C	1.4%	/	/	-1.1	/	0	0
c1ccc(-c2n[nH]nc2-c2ccccc2)cc1	?	-9	6	0.7	14%	-4	4
CC(C(=O)O)N1C(=O)/C(=C/C=C/c2ccco2)SC1=S (centres undefined)	2.7%	28	3	2.3	50µM*	-74*	-7
O=C(O)c1nn(CCSc2ccccc2F)c(=O)c2ccccc12	2.1%	9	-25	-1.7	-12%	1	5
CCc1ccccc1NC(=O)CSc1n[nH]c(C)c1[N+](=O)[O-]	3.2%	-22	2	-2.2	-5%	1	8
Cc1ccc(N2CC(C(=O)OCC(=O)c3ccc(F)cc3)CC2=O)cc1 (centres undefined)	-0.1%	1	1	-1.0	15%	15	3
Cc1ccccc1-n1c(-c2csc3ccccc23)n[nH]c1=S	0.2%	-19	5	1.3	14%	-10	-3
CC(C)(C)NCC(O)COc1cccc2c1CCC(=O)N2 (centres undefined)	1.3%	-3	-6	-6.7	/	-4	5
NC(=NCc1ccccc1)NN=Cc1ccnc2ccccc12	4.1%	-14	/	-2.7	/	-20	-11
Cc1cc(C)c(NC(=O)COC(=O)C2CCCO2)c(C)c1 (centres undefined)	-1.5%	-4	/	-1.6	/	7	4
Cc1ccc(S(=O)(=O)N2[C@@H](c3ccc(Cl)cc3)C(C(=O)O)=C[C@H]2C(C)(C)C)cc1	0.2%	6	/	1.4	/	-3	1
COc1ccccc1-c1noc2c1C(=O)NCC2	0.6%	3	/	-3.5	/	1	5
COc1ccc(S(=O)(=O)N2CCOCC2)cc1NC(=O)c1cccc(Cl)c1	2.7%	2	2	?	-1%	-12	-25
O=C1Cc2ccccc2C(c2ccccc2)N1 (centres undefined)	2.4%[38.3 µM]	-5	-14	-1.2	-25%	-2	6
CCOC(=O)N1CCN(CC(O)COc2c(C)cc(C)cc2C)CC1 (centres undefined)	-3.1%	-11	7	-3.7	19%	-4	-1
CCOc1ccc(C(=O)Nc2ccc3c(c2)OCO3)cc1OCC	14%	-17	-18	-3.2	14%	-6	-3
Nc1cc(=O)[nH]c(SCc2nnnn2-c2ccc(Cl)cc2)n1	3.1%	10	4	0.0	-18%	9	-11
COc1cc(/C=N/NC(=O)c2ccncc2)cc2c1OCO2	0.6%	-5	-8	-2.6	12%	-10	-3
Cn1c(O)c(N=NC(=O)CNC(=O)c2cccnc2)c2ccccc21	1.2%	-16	5	-7.9	2%	-1	3
CCOc1ccc(C(=O)NCC(=O)NNC(=O)CN(C)S(=O)(=O)c2ccc(Cl)cc2)cc1OCC	0.8%	5	/	1.0	/	-3	0
CCn1c(NCc2ccccc2NS(=O)(=O)c2ccc(C)cc2)nc2ccccc21	4.4%	-26	25	-2.4	25%	-8	-7
Cc1sc2nc(SCC(=O)Nc3cccc(S(N)(=O)=O)c3)[nH]c(=O)c2c1C	1.6%	-12	/	-5.5	/	-7	-2
C=CCNc1nc(-c2cc3ccccc3o2)cs1	?	-9	-9	-0.3	?	-5	-16
COc1cccc(-c2cc(C(=O)N3CC4(C)CC3CC(C)(C)C4)no2)c1 (centres undefined)	2.0%[38.3 µM]	-8	-10	-3.4	-17%	-2	-6
Cc1cc2cc3c(=O)[nH]c(=O)cc-3n(CC(O)C(O)C(O)CO)c2cc1C (centres undefined)	6.3%	-23	/	-9.5	/	-16	-3
COc1ccc(N/C=C/C(=O)c2sc(-c3ccccc3)nc2C)cc1	7.2%	-9	1	-1.1	?	6	-12
Cc1cc(=O)[nH]c(SC(C(=O)O)c2ccccc2)n1 (centres undefined)	-0.5%	15	2	-0.5	-3%	11	4

2 compounds from above, showing only Sfp PPTase inh, CtBP-E1A inh and D2 PAM:
mol	Sfp PPTase inh	CtBP-E1A inh	D2 PAM
Cn1c(O)c(N=NC(=O)CNC(=O)c2cccnc2)c2ccccc21	2%	3	-16
CCOc1ccc(C(=O)NCC(=O)NNC(=O)CN(C)S(=O)(=O)c2ccc(Cl)cc2)cc1OCC	/	0	5

The listing continues.
SMILES	PINK1 modulator	D2 PAM	TRPV1 potentiator	D2 ag	Sfp PPTase inh	Six1-Eya2 blk	CtBP-E1A inh
COc1ccc2cc3cc(C(=O)Nc4ccc5c(c4)OCO5)oc3nc2c1	-0.7%	-29	-11	-0.7	3%	-3	-2
CC(C)(C)c1cc(C(=O)N/N=C/c2ccc(O)cc2)n(-c2ccccc2)n1	-1.6%	3	-14	0.0	1%	-26	0
CCCn1nnnc1NCc1ccc(N(CC)CC)cc1	0.4%	-7	-17	-1.4	-1%	-1	/
O=C(CSc1nnnn1-c1ccccc1)Nc1ccc(Cl)cn1	12%	-4	-3	1.0	9%	15	0
COc1ccc(NC(=O)c2ccccc2-c2ccc(C(F)(F)F)cc2)cc1S(=O)(=O)N1CCOCC1	1.5%	-5	14	-4.0	4%	6	-7
Cc1ccc(C(C(=O)NC2CCCCC2)N(Cc2cccnc2)C(=O)c2csnn2)cc1 (centres undefined)	1.7%	-4	28	-2.6	10%	-4	3
COc1ccc(C(=O)Oc2cc(N)n(S(=O)(=O)c3ccccc3)n2)cc1	3.1%	-2	12	-0.8	-9%	-15	/
O=C(Cn1cnc2c(oc3ccccc32)c1=O)N1CCCc2ccccc21	3.3%	-7	13	-3.0	-1%	-5	4
CCOC(=O)c1sc(SCC(=O)Nc2ccc(N(C)C)cc2)nc1N	14%[38.3 µM]	10	-19	3.0	-4%	-20	-21
Nc1nc(N)c2cc(CNc3ccc(Cl)c(Cl)c3)ccc2n1	-2.3%	-14	/	1.0	/	-15	-6
COc1ccc(C2=NN(C(=O)CSc3ncccn3)C(c3cccc(OC)c3OC)C2)cc1 (centres undefined)	-0.9%	-4	-5	0.0	16%	-11	8
O=C(CCCCCn1c(=S)[nH]c2ccc(N3CCOCC3)cc2c1=O)NC1CCN(Cc2ccccc2)CC1	7.5%	-25	3	-5.6	9%	-7	2
Cc1cc(C)nc(NS(=O)(=O)c2ccc(NC(=O)c3ccc4c(c3)OCCO4)cc2)n1	0.2%	-9	1	-2.6	7%	38	29
COc1ccc(SC[C@H](CC(C)C)N2CCN(C)CCC2=O)cc1	8.2%	2	-7	-2.7	17%	2	2
CCS(=O)(=O)Nc1cccc(C2=NN(S(=O)(=O)c3ccc(C)cc3)C(c3ccco3)C2)c1 (centres undefined)	0.6%	-13	-20	-4.2	50µM*	-9	/
CCOC(=O)C1(C)/C(=N/Nc2ccccc2Cl)C(=O)C(=O)N1c1ccccc1 (centres undefined)	-2.2%	-10	19	-3.5	-14%	-10	-18
CC1C=CCC2C(=O)N(c3ccccc3OC(=O)c3ccco3)C(=O)C12 (centres undefined)	0.6%	-6	2	-3.0	22%	5	8
Cc1cccc(NC(=O)c2cccc(Cn3cc(Br)c([N+](=O)[O-])n3)c2)c1C	3.7%	-17	-9	-2.0	7%	-9	-1
Cn1cccc1CC(=O)N/N=C/c1ccco1	-0.2%	1	5	-2.0	-19%	-3	-1
C=CCn1c(COc2cccc3ccc(C)nc23)nnc1SCC(N)=O	0.9%	-1	-2	-1.8	13%	0	0
COc1ccc(C(=O)NCCS(=O)(=O)NCCc2ccccc2)cc1	1.0%	-2	7	-3.4	/	8	-4
O=C(CCCc1c[nH]c2ccccc12)NCC1COc2ccccc2O1 (centres undefined)	1.1%	-7	0	-5.8	5%	-15	5
COc1cc2c(cc1OC)CN(c1ccc3ccccc3n1)CC2	0.1%	5	-18	-4.8	56µM*	16	-3
CCOC(=O)[C@]12CCC=C1N(Cc1ccccc1)C(=O)[C@H](CC(=O)NCCCN1CCCC1=O)C2	-0.1%	/	/	/	/	15	-5
CC(=O)Nc1ccc(NC(=O)C(C)OC(=O)CCC2CCCC2)cc1 (centres undefined)	5.5%	6	-6	-3.3	/	6	-5
COc1ccc(/C=N/NC(=O)c2cccnc2)cc1O	0.4%	-5	5	0.0	23%	-18	-1
O=C(c1ccco1)C(O)c1ccco1 (centres undefined)	1.1%	-75	8	-28	12%	-3	/
C[C@@H]1CC=C[C@H]2[C@H]1C(=O)N(Cc1ccccc1)[C@H]2c1ccc(-c2cc3ccccc3s2)cc1F	6.8%	-6	-35	-1.8	-7%	0	2
CCOC(=O)CSc1nc(NC#N)nc(N(CC)CC)n1	-1.6%	2	4	-3.8	-3%	11	19
Cn1c(SCC(=O)N2c3ccccc3CCc3ccccc32)nnc1-c1cc2ccccc2cc1O	3.0%	3	5	1.0	13%	-9	-11
CCOC(=O)c1c(C)nn(-c2ncccc2NC(=O)NC(C)C)c1C	0.1%	3	-1	0.2	6%	-18	2
COc1ccccc1C1(O)C(=O)Nc2ccc(C)cc21 (centres undefined)	0.6%	-6	-4	-4.2	9%	-15	-1

Records above marked active in Sfp PPTase inh:
SMILES | PINK1 modulator | D2 PAM | D2 ag | Sfp PPTase inh | Six1-Eya2 blk | CtBP-E1A inh
CC(C(=O)O)N1C(=O)/C(=C/C=C/c2ccco2)SC1=S (centres undefined) | 2.7% | 28 | 2.3 | 50µM* | -74* | -7
CCS(=O)(=O)Nc1cccc(C2=NN(S(=O)(=O)c3ccc(C)cc3)C(c3ccco3)C2)c1 (centres undefined) | 0.6% | -13 | -4.2 | 50µM* | -9 | /
COc1cc2c(cc1OC)CN(c1ccc3ccccc3n1)CC2 | 0.1% | 5 | -4.8 | 56µM* | 16 | -3

High-throughput results as filed in PubChem.
